Screens from PubChem BioAssay.
StopGo FLuc = lowers the firefly signal of an FMDV 2A StopGo reporter; 0.23% of 120,000 active; AID 1745856; HEK cells with a luciferase reporter of 2A StopGo recoding; Potency, µM (top dose mostly 57.5 µM), inactives show at the top dose signal change, negative = less light; active = well fitted falling curve with a large enough effect; inconclusive = small, poorly fitted or top-dose-only effect; inactive = no such curve, though single readings can be large or run the other way; further: nearly all actives have a fitted effect of over 60% in size; overnight with compound
2A Renilla = lowers the Renilla signal of an FMDV 2A StopGo reporter; HEK cells with a luciferase reporter of 2A StopGo recoding; Potency, µM (series often up to 57.5 µM), for inactives: top-dose signal change, negative = less light; 0.32% of 120,000 active; active means well fitted falling curve with a large enough effect; inconclusive means small, poorly fitted or top-dose-only effect; inactive means no such curve, though single readings can be large or run the other way; further: nearly all actives have a fitted effect of over 55% in size; overnight with compound
An asterisk follows results filed as active; ? = inconclusive; & = joins results of further samples; [ ] = another dose, or the depositor's remark. On the % scale 0 is the no-effect control and ±100 the full control effect; potency means the concentration at half of the fitted maximal effect. Some of the compounds tested. The share of hits here may be higher or lower than overall.

Each structure is followed by: 2A Renilla	StopGo FLuc
COC(=O)C1=C(C)C(C(C)=O)(C(=O)OC)NC(C)=C1c1ccccc1Cl (stereo not given)
  20%	38%[activator]
Cc1cc(C)c2c(CC(=O)Nc3ccc(F)cc3)coc2c1
  38%[activator]	-2%
COc1cccc(N2CCN(S(=O)(=O)c3ccc(-c4cnc(C5CC5)o4)cc3)CC2)c1
  -5%	2%
CN(Cc1ccc(F)cc1)C(=O)Cn1nc(C(N)=O)c2ccccc2c1=O
  -14%	-8%
CCc1c(C)sc(NC(=O)c2cc(-c3ccc(OC)cc3)on2)c1C#N
  -10%	-13%
Cc1ccc(CCNC(=O)CCCn2c(=O)c3ccccc3n(CC(=O)Nc3cc(Cl)ccc3C)c2=O)cc1
  -9%	-22%
CCCC(=O)C1C(=O)CC(c2ccc(OC)c(OC)c2)CC1=O (stereo not given)
  11%	14%
CSc1ccc(CN(C)S(=O)(=O)c2ccc3c(c2)OCCCO3)cc1
  27%	19%
COc1ccc(OC)c(CC2C(=O)Nc3ccc(Br)cc32)c1 (stereo not given)
  ?	?
CN(C)CC(O)COc1ccc(NC(=O)NCc2ccccc2)cc1 (stereo not given)
  7%	0%
CCN(C(=O)Cn1c(=O)n(CCCS(=O)(=O)C2CCCCC2)c(=O)c2ccccc21)c1cccc(C)c1
  -10%	-20%
Cc1c(-c2ccccc2)nc2c(Cl)cccc2c1C(=O)OCC(=O)c1ccc(F)cc1
  -11%	-15%
COc1ccc2cc(-c3nc(-c4nonc4N)no3)c(=O)oc2c1
  3%	44%[activator]
Oc1cc(C2CCCCC2)ccc1C1CCCCC1
  0%	160%[activator]
COc1cc(C(=O)n2nc(C)c(Sc3ccc(Cl)cc3)c2C)cc(OC)c1OC
  -6%	-14%
O=C(Sc1ccc(Oc2ccc(SC(=O)c3ccco3)cc2)cc1)c1ccco1
  -1%	0%
O=C(Cn1cccc1C(=O)c1ccccc1)NCc1ccc(F)cc1
  -2%	0%
CCN(CC)S(=O)(=O)c1cc([N+](=O)[O-])ccc1N/N=C/c1cccs1
  -4%	1%
O=c1[nH]c2ccc(NCc3ccc(-c4ccc(Cl)cc4)o3)cc2[nH]1
  -3%	17%
COc1cc(CC(=O)OCc2c(F)cccc2Cl)cc(OC)c1OC
  53%[activator]	43%[activator]
Cc1c(C)n(CCN(C)C)c2ncn3nc(COc4ccc(Cl)cc4)nc3c12
  4%	14%
CC1CCCCC1NC(=O)C1CC=CCC1 (stereo not given)
  -2%	-1%
CCOC(=O)c1cc2c(=O)n3ccccc3nc2n(Cc2ccco2)c1=NC(=O)c1ccc(OCC)cc1
  104%[activator]	101%[activator]
Cn1nc(C(=O)Nc2nc(-c3ccncc3)cs2)c2ccccc2c1=O
  44%[activator]	0%
O=C(O)C/C(=C/c1csc(-c2ccc(F)cc2)n1)c1nc2ccccc2s1
  0%	8%
COc1ccccc1CNC(=O)c1nccnc1N
  -3%[1.06 µM]	45%[activator]
CCN(Cc1ccc2c(c1)OCO2)C(=O)NCc1nc(C)cs1
  3%	12%
NCCc1ccc2c(c1)OCCO2
  -1%	-5%
Cc1ccc(NC(=O)Cn2c(=O)oc3cc(S(=O)(=O)NCc4ccccc4)ccc32)cc1
  134%[activator]	20%
COc1ccc(-c2cc(C(=O)NCCc3ccccc3)c3c(-c4ccccc4)[nH]nc3n2)cc1
  3%	15%
CCOC(=O)C1=C(C)Nc2nc(SCc3ccccc3Cl)nn2C1c1cccs1 (stereo not given)
  7%	20%
O=C(Nc1ccc(Br)cc1)C1C2C3CCC(C3)C12 (stereo not given)
  25%	10%
CCNc1nc2ccccc2nc1C(C#N)S(=O)(=O)c1ccc(C)c(C)c1 (stereo not given)
  135%[activator]	4%
COc1cc(C#N)ccc1OCc1c(F)cccc1Cl
  31%	24%
CC(Nc1ccc(C23CC4CC(CC(C4)C2)C3)cc1)C(=O)Nc1cc(C(F)(F)F)ccc1Cl (stereo not given)
  9%	1%
C/C(=N/Nc1ccccc1)c1ccc([N+](=O)[O-])cc1
  4%	0%
Cc1ccc(Cl)cc1N1CCN(C(=O)c2cc3c(=O)oc4ccccc4c3s2)CC1
  -11%	-6%
CC(C)C(=O)Nc1cccc(Cl)c1Cl
  14%	4%
Cc1ccc(C(C(=O)NC2CCCCC2)N(C)Cc2ccccc2)cc1 (stereo not given)
  42%[activator]	30%
Cc1ccc(F)c(NC(=O)CCNC(=O)c2cccs2)c1
  -11%	0%
CCn1c(N2CCC(Cc3ccccc3)CC2)nc2c1c(=O)n(C)c(=O)n2C
  ?	?
CS(=O)(=O)c1ccccc1NC(=O)COc1ccccc1C(=O)Nc1ccccc1
  58%[activator]	-2%
CCOc1ccc(Nc2cc(C)nc3nc(Cc4ccc(Cl)cc4)nn23)cc1
  2%	-16%
CN=c1scc(-c2[nH]c(C)c(C(=O)OC)c2C)n1C
  -13%[1.06 µM]	-2%
CC(C)Cc1ccc(C(C)NC(=S)NC2CC2)cc1 (stereo not given)
  -8%[1.06 µM]	?
Cc1cccc(CNC(=O)C2CCN(c3nn4cc(-c5ccc(F)cc5)nc4s3)CC2)c1
  -12%	51%[activator]
Cc1ccc(-c2nnn(Cc3csc(-c4ccccc4Cl)n3)n2)cc1
  0%	4%
Cc1nc2sccn2c1-c1csc(Nc2ccccc2Cl)n1
  ?	?
CCCCNc1ccc(-c2nc(-c3ccncc3)no2)cc1[N+](=O)[O-]
  -16%	2%
COc1ccccc1SC(C(=O)NC1CC1)c1ccccc1 (stereo not given)
  9%	2%
Cc1noc(C(C)N2CCN(C(=O)c3ccccn3)CC2)n1 (stereo not given)
  -1%	3%
CC(=O)Nc1cccc(NC(=O)Cn2cnc3c(oc4ccccc43)c2=O)c1
  -7%	7%
Cc1ccc(CNC(=O)c2ccc(CN3CC(=O)N4CCCCC4C3=O)cc2)cc1 (stereo not given)
  -6%	-11%
O=C(c1cc(-c2cccs2)nc2ccccc12)N1CCN(CCN2CCCC2)CC1
  23%	16%
COC(=O)c1ccc(NC(=O)CC2Sc3ccccc3NC2=O)cc1 (stereo not given)
  148%[activator]	63%[activator]
CCN(CC)CCCNC(=O)c1csc(Nc2ccc(C)cc2)n1
  -16%	-10%
Cc1nc2ccccc2nc1COC(=O)c1cnc2ccccc2n1
  -6%	0%
COC(=O)c1ccc2oc(=O)c(S(=O)(=O)c3ccc(C)cc3)cc2c1
  -15%&2%	-12%&-4%
CCOC(=O)c1c(C)c(-c2ccccc2)n(CC(=O)Nc2cc(OC)ccc2OC)c1C
  -1%	4%
CC(Oc1ccc(Cl)cc1)C(=O)N1CCN(c2nccs2)CC1 (stereo not given)
  2%	8%

Single entries from the results shown:
Under 2A Renilla, CCOC(=O)c1c(C)c(-c2ccccc2)n(CC(=O)Nc2cc(OC)ccc2OC)c1C has the entry -1%
Under 2A Renilla, CCOc1ccc(Nc2cc(C)nc3nc(Cc4ccc(Cl)cc4)nn23)cc1 has the entry 2%
Under 2A Renilla, CC(=O)Nc1cccc(NC(=O)Cn2cnc3c(oc4ccccc43)c2=O)c1 has the entry -7%

(list continues)
Each structure is followed by: 2A Renilla	StopGo FLuc
CCCN(CCC)CCNC(=O)c1cc2c(=O)oc3ccc(C)cc3c2s1
  -10%	-21%
Cc1cnc(NC(=O)c2nc(C)n(-c3ccc(Cl)cc3)n2)s1
  3%	44%[activator]
CCOC(=O)c1cnn(-c2ccc(C(=O)Nc3ccc(OC(F)(F)F)cc3)cc2)c1N
  -5%	-5%
Cn1cnc2c1c(=O)n(Cc1ccc(Br)cc1)c(=O)n2C
  15%	11%
Cc1ccc2c(c1)Oc1cc(Cl)c(S(=O)(=O)N(C)Cc3ccccc3)cc1C(=O)N2
  -10%	-17%
COc1ccc(Br)cc1CNC(=O)c1ccc2c(c1)nc1n2CCCCC1
  13%	8%
CCOC(=O)c1cccc(NC(=O)CCNS(=O)(=O)c2cccc3nonc23)c1
  0%	-7%
Cn1c(=O)oc2cc(S(=O)(=O)NC(Cc3ccccc3)C(=O)NCc3ccccc3Cl)ccc21 (stereo not given)
  7%	?
Cc1ccc(C(=O)NC(C)C)c(Cl)c1
  11%	73%[activator]
N#CCCSc1nnc(-c2c[nH]c3ccccc23)n1C1CC1
  14%	12%
Cc1cccc(NC(NC(=O)c2cccc(C)c2)C(Cl)(Cl)Cl)c1 (stereo not given)
  5%	-2%
CCOc1cc(Br)cc(C2NC(=O)c3c(sc4c3CCN(C)C4)N2)c1O (stereo not given)
  -3%	53%[activator]
O=C(NCCCN1CCN(c2ccc(F)cc2)CC1)Nc1ccc(Cl)cc1
  3%	17%
COc1ccc(-c2cc(C(=O)OCC(=O)c3cccc(OC)c3)c3cccc(Cl)c3n2)cc1
  -13%	-15%
Cc1ccnc(NC(c2cc(C)ccc2O)c2ccc3cccnc3c2O)c1 (stereo not given)
  ?	-15%
Cc1ccccc1NS(=O)(=O)c1cnc(N)nc1
  -5%	-8%
Cn1c(=O)c2c(nc(NCCc3ccc(F)cc3)n2Cc2ccccc2Cl)n(C)c1=O
  -2%	3%
Cc1ccc(CNC(=O)c2nn(C)c3c2CS(=O)(=O)c2ccccc2-3)cc1
  -3%	-18%
CCCCNC(=S)NC1CCCCC1
  186%[activator]	0%
CCCCCOC(=O)CSc1nc2c(c(=O)[nH]c(=O)n2C)n1Cc1ccc(C)cc1
  -1%	6%
Cc1cc(=O)n2nc(N3CCC(C(=O)Nc4ccc(Br)cc4F)CC3)sc2n1
  -15%	-13%
O=S(=O)(c1cc(Cl)ccc1Cl)N1CCCC1c1nnc2ccccn12 (stereo not given)
  10%	24%
Cc1ccc(CNS(=O)(=O)c2ccc3c(c2)CC(C)N3C(=O)C2CCC2)cc1 (stereo not given)
  14%	3%
CCn1c(SCc2cc3c(cc2Br)OCO3)nc2cc(S(N)(=O)=O)ccc21
  -26%	?
O=C(CC12CC3CC(CC(C3)C1)C2)Nc1ccccc1C(=O)c1ccccc1
  39%[activator]	8%
O=C(CSc1nc2ccccc2nc1Cc1ccc(Cl)cc1)N1CCCc2ccccc21
  47%[activator]	64%[activator]
COc1ccc(CNC2CCCC2)c2ccccc12
  -19%	-25%
COc1cc(CC(=O)NC2CCCC2)cc(OC)c1OC
  -10%	-12%
CCCCCCc1cc2c3c(c(=O)oc2cc1OCC(=O)C(C)(C)C)CCC3
  -3%	-6%
COc1ccc(/C=C/C(=O)c2ccc(C(=O)O)s2)c(OC)c1
  -7%	45%[activator]
COc1cc(NC(=O)CCn2c(-c3ccccc3)cc(C(C)=O)c2C)cc(OC)c1
  5%	3%
c1ccc2c(N3CCCCCC3)nc(-c3ccncc3)nc2c1
  ?	?
CCN(CCN(C)C)C(=O)C1CCN(S(=O)(=O)c2c(C)noc2/C=C/c2ccccc2F)CC1
  18%&-1%	11%&-18%
CCCC(C)NC(=O)CSc1nnc(Nc2ccc(CC)cc2)s1 (stereo not given)
  ?	-10%
Cc1nc(SCc2ccccc2)[nH]c(=O)c1CCC(=O)N1CCCCC1
  11%	19%
CCCc1ccc(C(=O)COC(=O)c2cccc(S(C)(=O)=O)c2)cc1
  1%	-1%
NC(=O)c1cc(S(=O)(=O)N2CCCCC2)cs1
  -12%	0%
Cn1c(=O)c2c(nc(Cl)n2CC(=O)N(C2CCCCC2)C2CCS(=O)(=O)C2)n(C)c1=O (stereo not given)
  6%	13%
CCCNc1nc2ccccc2nc1C(=O)Nc1c(C)cccc1C
  3%	1%
Cc1cc(C(=O)NCc2cccnc2)c(C)s1
  2%	-5%
Cc1ccc(NC(=O)c2oc3ccc(S(=O)(=O)N(C)C4CCCCC4)cc3c2C)cc1Cl
  -11%	-16%
Cc1ccc(NC(=O)CSc2ncc(-c3ccc(F)cc3)o2)cc1Cl
  -19%	-2%
CCCN1CCN(c2nnc(-n3cccc3CN3CCN(C4CCCCC4)CC3)s2)CC1
  -20%	-7%
CCN(c1ccccc1)S(=O)(=O)c1cc(C(=O)Nc2ccc3oc(C)nc3c2)ccc1C
  ?	?
CC(c1ccc(S(C)(=O)=O)cc1)N(C)C(=O)CCc1ncc(-c2ccccc2Cl)o1 (stereo not given)
  -7%	85%[activator]
COc1ccc2nc(C)c(C(=O)Nc3cc(C)ccn3)cc2c1
  -6%	126%[activator]
O=C(NNC(=O)C1CC=CCC1)c1cccc(Cl)c1 (stereo not given)
  35%[activator]	58%[activator]
CCN(c1ccccc1)S(=O)(=O)c1cccc(C(=O)OC2CCCCC2=O)c1 (stereo not given)
  101%[activator]	-4%
CC1N=C2c3ccccc3N=C(SCC(=O)NCCc3ccc(Cl)cc3)N2C1=O (stereo not given)
  30%	-3%
COc1ccc(/C=C/C(=O)CC(=O)c2cc(Cl)ccc2O)cc1
  114%[activator]	0%
Cc1ccc(NC(=O)CC23CC4CC(CC(C4)C2)C3)cc1
  10%	18%
C=CCN(CC(=O)NC(=O)NC)Cc1cccs1
  4%	2%
CCCC1CCC(c2ccc(OC(=O)c3cccnc3)cc2)CC1 (stereo not given)
  11%	10%
CC/C(=N\NC(=O)c1ccc(C(C)(C)C)cc1)c1ccccc1
  18%	117%[activator]
Brc1ccccc1-c1nn2c(CN3CCOCC3)nnc2s1
  0%	-8%
CC1(C)CC(=O)C(CCS(=O)(=O)OCC(F)(F)C(F)F)(CCS(=O)(=O)OCC(F)(F)C(F)F)C(=O)C1
  -11%	-5%

Random excerpt: three compounds from above
Each structure is followed by: 2A Renilla	StopGo FLuc
Brc1ccccc1-c1nn2c(CN3CCOCC3)nnc2s1
  0%	-8%
Cc1ccc(NC(=O)CSc2ncc(-c3ccc(F)cc3)o2)cc1Cl
  -19%	-2%
CC1(C)CC(=O)C(CCS(=O)(=O)OCC(F)(F)C(F)F)(CCS(=O)(=O)OCC(F)(F)C(F)F)C(=O)C1
  -11%	-5%
